YB-1 expression: YB-1 expression inhibition. U2OS, qRT-PCR YB-1 vs CDIP delta delta Cp, 16 h; hits give high values; zero = DMSO, each unit about twofold. AID 434959. delta delta Cp (YB-1 minus CDIP) (no concentration beside the values). 30,000 compounds, 0.37% hits;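 active = delta delta Cp rounded down to an integer at or above 3, about 3 SD of DMSO wells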;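 note: higher means less YB-1 transcript or more CDIP transcript relative to DMSO; stock transfer was 100 nL into about 100 µL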
Starred values were filed as active, the others as inactive. This is a subset; rates above refer to the full screens.

SMILES	YB-1 expression
COc1ccc([Si](C)(C)[C@@H]2[C@@H](CCO)O[C@]3(C(=O)N(C)c4ccccc43)[C@H]2C)cc1	0.42
O=C(NO)c1cccc(C(=O)N/N=C/c2cccc(O)c2O)c1	-0.44
C[C@H]1CN([C@@H](C)CO)C(=O)CCCn2nncc2CO[C@@H]1CN(C)C(=O)Cc1ccccc1	-0.26
COc1cccc(CN(C)C[C@H]2OCc3cn(nn3)CCCC(=O)N([C@@H](C)CO)C[C@H]2C)c1	0.13
C/C=C/[C@@H](CCn1cc([C@H](O)c2ccccc2)nn1)[Si](C)(C)c1ccc(OC)cc1	0.14
C[C@H](CO)N1C[C@H](C)[C@@H](CN(C)C(=O)Nc2ccccc2F)OCc2cn(nn2)CCCC1=O	0.27
O=C(N/N=C/c1ccc(O)c2ccccc12)c1ccccn1	0.41
COCCOC(=O)N1C(=O)[C@@]2(c3cc(C#Cc4ccc(OC)cc4)ccc31)[C@H](C(=O)N1CCc3cc(OC)c(OC)cc3C1)[C@H]1C(=O)O[C@H](c3ccccc3)[C@H](c3ccccc3)N1[C@@H]2c1ccccc1OCCO	0.09
CCCC(O)C#Cc1cnc2c(c1)C(=O)N([C@H](C)CO)C[C@H](C)[C@H](CN(C)S(=O)(=O)c1cccc(F)c1)O2 (stereo partly drawn)	0.013
C[C@H]1CN([C@@H](C)CO)C(=O)CCCn2cc(nn2)CO[C@H]1CN(C)C	0.054
COC(=O)CCCCCCC(=O)N/N=C/c1ccc(Sc2nnc(C)n2C)o1	0.066
C=CCN1Cc2ccccc2C[C@@]2(COC(c3ccc(OCCCO)cc3)=N2)C1=O	0.096
Cc1cccc(S(=O)(=O)N(C)C[C@H]2OCc3cnnn3CCCC(=O)N([C@@H](C)CO)C[C@@H]2C)c1	-0.25
O=C(CCCCCCC(=O)Nc1ccccc1O)N/N=C/c1ccc2c(c1)OCCO2	-0.35
C[C@H]1CN([C@@H](C)CO)C(=O)CCCn2nncc2CO[C@H]1CN(C)C(=O)Nc1cccc(F)c1	-0.32
COC(=O)N(C)C[C@H]1OCc2cn(nn2)CCCC(=O)N([C@@H](C)CO)C[C@H]1C	0.028
C[C@H]1CN([C@@H](C)CO)C(=O)CCCn2nncc2CO[C@H]1CN(C)S(=O)(=O)c1ccc(Oc2ccccc2)nc1	-0.08
C[C@H](CO)N1C[C@H](C)[C@H](CN(C)C(=O)NC2CCCCC2)Oc2ncc(-c3ccc(F)cc3)cc2C1=O	-0.52
O=C(NO)c1ccc(C(=O)N/N=C/c2ccc(F)c(Oc3ccccc3)c2)cc1	0.27
O=C(N/N=C/c1cc(O)ccc1O)c1ccccn1	0.065
CC(C)(C)OC(=O)Nc1cccc(/C=N/NC(=O)c2ccc(C(=O)NO)cc2)c1	0.068
COC(=O)C(CC#Cc1ccc2c(c1)[C@]1(C(=O)N2)[C@H](C(N)=O)[C@H]2C(=O)O[C@H](c3ccccc3)[C@H](c3ccccc3)N2[C@@H]1c1ccccc1OCCO)C(=O)OC	-0.79
C[C@@H]1CN([C@@H](C)CO)C(=O)CCCn2cc(nn2)CO[C@@H]1CN(C)S(=O)(=O)c1ccc(-c2ccccc2)cc1	0.0084
C[C@@H]1CN([C@@H](C)CO)C(=O)CCCn2cc(nn2)CO[C@@H]1CN(C)S(=O)(=O)c1ccccc1F	-0.36
C[C@H](CO)N1C[C@H](C)[C@H](CN(C)S(=O)(=O)c2cn(C)cn2)Oc2ncc(C#Cc3cccc(F)c3)cc2C1=O	-0.37
Cc1ccc(/C=N/NC(=O)CCCCCCC(=O)O)o1	-0.13
C=CCN1C(=O)[C@@]2(Cc3ccccc3)N=C(c3ccc(OCCCO)cc3)O[C@H]2c2ccccc21	0.011
O=C(N/N=C/c1cc(Br)cc(Br)c1O)c1ccccc1O	-0.045
COc1cc(CO)cc(I)c1O[C@H]1C=C(C(=O)NCCO)C[C@@H](NCc2ccccc2F)[C@@H]1O	-0.097
C[C@H](CO)N1C[C@H](C)[C@H](CN(C)C)Oc2ncc(C#CCN(C)C)cc2C1=O	-0.28
CC(C)OC(=O)N(C)C[C@@H]1OCc2cnnn2CCCC(=O)N([C@H](C)CO)C[C@@H]1C	-0.12
COc1cc(Br)cc(/C=N/NC(=O)CCCCCC(=O)Nc2ccccc2O)c1O	-0.23
C[C@H](CO)N1C[C@H](C)[C@H](CN(C)S(C)(=O)=O)Oc2ncc(-c3cccc(F)c3)cc2C1=O	-0.15
COc1ccc(S(=O)(=O)N(C)C[C@H]2OCc3cn(nn3)CCCC(=O)N([C@H](C)CO)C[C@@H]2C)cc1	0.012
C[C@H]1CN([C@@H](C)CO)C(=O)CCCn2cc(nn2)CO[C@@H]1CN(C)S(=O)(=O)c1ccc(-n2cccn2)cc1	-0.85
C[C@@H]1CN([C@@H](C)CO)C(=O)CCCn2nncc2CO[C@@H]1CN(C)S(=O)(=O)c1ccccc1F	-0.075
COc1ccc(C#Cc2cnc3c(c2)C(=O)N([C@H](C)CO)C[C@H](C)[C@H](CN(C)S(=O)(=O)c2cccc(F)c2)O3)cc1OC	-0.33
C[C@H](CO)N1C[C@H](C)[C@@H](CN(C)Cc2cccc(C(F)(F)F)c2)OCc2cnnn2CCCC1=O	0.25
C[C@@H]1CN([C@@H](C)CO)C(=O)CCCn2nncc2CO[C@H]1CN(C)S(=O)(=O)c1cccc(F)c1	-0.086
COc1cc(/C=N/NC(=O)CCCCC(=O)NO)c(Br)cc1O	-1.4

Next section; the last four above are carried over.
SMILES	YB-1 expression
COc1ccc(C#Cc2cnc3c(c2)C(=O)N([C@H](C)CO)C[C@H](C)[C@H](CN(C)S(=O)(=O)c2cccc(F)c2)O3)cc1OC	-0.33
C[C@H](CO)N1C[C@H](C)[C@@H](CN(C)Cc2cccc(C(F)(F)F)c2)OCc2cnnn2CCCC1=O	0.25
C[C@@H]1CN([C@@H](C)CO)C(=O)CCCn2nncc2CO[C@H]1CN(C)S(=O)(=O)c1cccc(F)c1	-0.086
COc1cc(/C=N/NC(=O)CCCCC(=O)NO)c(Br)cc1O	-1.4
C=CCOC(=O)[C@@H]1[C@H]2C(=O)O[C@H](c3ccccc3)[C@H](c3ccccc3)N2[C@H](c2ccc(OCCOC(=O)[C@@H]3C[C@@H]4C(=O)N[C@@H](Cc5ccccc5)C(=O)N4[C@@H]3c3ccc(O)cc3)cc2)[C@@]12C(=O)Nc1ccc(I)cc12	0.18
O=C(NCc1ccccc1)C1=C[C@@H](c2cccs2)C[C@@H](OCCCCO)O1	0.22
CC(C)NC(=O)N(C)C[C@@H]1Oc2ncc(-c3ccc(F)cc3)cc2C(=O)N([C@H](C)CO)C[C@@H]1C	0.15
COc1ccc(-c2cnc3c(c2)C(=O)N([C@H](C)CO)C[C@H](C)[C@H](CN(C)C(=O)NC2CCCCC2)O3)cc1	-0.69
COc1ccc(NC(=O)N(C)C[C@@H]2OCc3cnnn3CCCC(=O)N([C@@H](C)CO)C[C@H]2C)cc1	0.49
C[C@@H]1CN([C@@H](C)CO)C(=O)CCCn2cc(nn2)CO[C@H]1CN(C)S(=O)(=O)c1ccc(F)cc1	0.18
O=C(NO)c1ccc(C(=O)N/N=C/c2ccc(O)cc2)cc1	0.32
NC(=O)COc1ccc(/C=N/NC(=O)c2ccccn2)cc1	0.16
CNC[C@@H]1OCc2cn(nn2)CCCC(=O)N([C@H](C)CO)C[C@H]1C	0.27
C[C@@H]1CN([C@H](C)CO)C(=O)CCCn2cc(nn2)CO[C@@H]1CN(C)S(=O)(=O)c1ccc(-c2ccccc2)cc1	0.15
O=C(N/N=C/c1ccc(O)cc1)c1ccccn1	-0.5
COC(=O)CCCCCCC(=O)N/N=C/c1cc(O)ccc1O	0.32
O=C(CCCCCCC(=O)Nc1ccccc1O)N/N=C/c1ccccc1C(=O)O	0.031
C[C@H](CO)N1C[C@H](C)[C@H](CN(C)Cc2ccc3c(c2)OCO3)Oc2ncc(C#CCN(C)C)cc2C1=O	0.38
Cc1ccc(S(=O)(=O)N(C)C[C@@H]2OCc3cnnn3CCCC(=O)N([C@@H](C)CO)C[C@@H]2C)cc1	0.067
C[C@H]1CN([C@@H](C)CO)C(=O)CCCn2nncc2CO[C@@H]1CN(C)S(=O)(=O)c1ccc(-c2ccccc2)cc1	-0.25
CO[C@H]1O[C@H](CO)[C@@H](OC(=O)Nc2cccc(F)c2)[C@@H]2OC(=O)[C@@H](Cc3ccccc3)C/C=C/C[C@H](Cc3ccccc3)C(=O)O[C@@H]12	-0.4
Cc1ccccc1S(=O)(=O)N1CCN(Cc2cccc(OCCO)c2)CC1	-0.053
O=C(NCc1ccc(F)cc1)[C@@H]1C[C@@H]2C(=O)N3CCC[C@H]3C(=O)N2[C@@H]1c1ccc(O)cc1	-0.1
O=C(NO)c1cccc(C(=O)N/N=C/c2ccc(B(O)O)cc2)c1	-0.72
CC(C)NC(=O)N(C)C[C@@H]1Oc2ncc(Br)cc2C(=O)N([C@H](C)CO)C[C@@H]1C	-0.081
O=C(CCCCCCC(=O)Nc1ccccc1O)N/N=C/c1cccc(Oc2ccccc2)c1	-0.2
N#Cc1ccc(/C=N/NC(=O)c2cccc(C(=O)NO)c2)cc1	-0.8
N#Cc1ccc(/C=N/NC(=O)CCCCCCC(=O)Nc2ccccc2O)cc1	0.027
COC(=O)CCCCCCC(=O)N/N=C/c1cc(O)ccc1Br	-0.34
C[C@@H]1CN([C@H](C)CO)C(=O)CCCn2cc(nn2)CO[C@H]1CN(C)C(=O)Nc1cccc(F)c1	0.091
COCCOC(=O)N1C(=O)[C@@]2(c3cc(C#CCC(C(=O)OC)C(=O)OC)ccc31)[C@H](C(N)=O)[C@H]1C(=O)O[C@H](c3ccccc3)[C@H](c3ccccc3)N1[C@@H]2c1ccccc1OCCO	-0.15
O=C(C1=C[C@@H](c2ccc3c(c2)OCO3)C[C@@H](OCc2ccc(CO)cc2)O1)N1CCCCC1	-0.31
COc1cccc(NC(=O)N(C)C[C@@H]2OCc3cnnn3CCCC(=O)N([C@H](C)CO)C[C@H]2C)c1	-0.05
C[C@H](CO)N1C[C@H](C)[C@H](CN(C)C(=O)Nc2cccc3ccccc23)Oc2ncc(C#Cc3ccc(F)cc3)cc2C1=O	-0.26
COC(=O)C(CC#Cc1ccc2c(c1)[C@]1(C(=O)N2)[C@H](c2ccc(OCCO)cc2)N2[C@H](c3ccccc3)[C@H](c3ccccc3)OC(=O)[C@H]2[C@@H]1C(N)=O)C(=O)OC	-0.2
Cc1ccccc1CN(C)C[C@@H]1OCc2cn(nn2)CCCC(=O)N([C@@H](C)CO)C[C@@H]1C	0.11
NC(=O)NCC#Cc1ccc2c(c1)[C@]1(C(=O)N2)[C@H](C(=O)O)[C@H]2C(=O)O[C@H](c3ccccc3)[C@H](c3ccccc3)N2[C@@H]1c1ccc(O)cc1	-0.22
COc1ccc(C#Cc2cnc3c(c2)C(=O)N([C@H](C)CO)C[C@H](C)[C@H](CN(C)Cc2ccccc2)O3)cc1OC	-0.53
C[C@H](CO)N1C[C@H](C)[C@H](CN(C)S(=O)(=O)c2cccc(F)c2)Oc2ncc(C#Cc3ccccc3)cc2C1=O	-0.24
O=C(N/N=C/c1ccccc1Br)c1ccccn1	-0.16
C[C@H](CO)N1C[C@H](C)[C@H](CN(C)S(=O)(=O)c2ccccc2)Oc2ncc(C#Cc3ccccc3)cc2C1=O	-0.2
C[C@@H]1CN([C@H](C)CO)C(=O)CCCn2cc(nn2)CO[C@@H]1CN(C)C(=O)Nc1ccc(N2CCN(C)CC2)cc1	-0.44
Cc1ccc(S(=O)(=O)N(C)C[C@@H]2OCc3cnnn3CCCC(=O)N([C@@H](C)CO)C[C@H]2C)cc1	-0.15
CCCC(O)C#Cc1cnc2c(c1)C(=O)N([C@H](C)CO)C[C@H](C)[C@H](CN(C)Cc1ccc3c(c1)OCO3)O2 (stereo partly drawn)	-0.028

Shown with each value named: 4 of the compounds above
COC(=O)C(CC#Cc1ccc2c(c1)[C@]1(C(=O)N2)[C@H](c2ccc(OCCO)cc2)N2[C@H](c3ccccc3)[C@H](c3ccccc3)OC(=O)[C@H]2[C@@H]1C(N)=O)C(=O)OC
  YB-1 expression: -0.2
C[C@@H]1CN([C@H](C)CO)C(=O)CCCn2cc(nn2)CO[C@@H]1CN(C)C(=O)Nc1ccc(N2CCN(C)CC2)cc1
  YB-1 expression: -0.44
O=C(N/N=C/c1ccccc1Br)c1ccccn1
  YB-1 expression: -0.16
Cc1ccc(S(=O)(=O)N(C)C[C@@H]2OCc3cnnn3CCCC(=O)N([C@@H](C)CO)C[C@H]2C)cc1
  YB-1 expression: -0.15

The list continues:
SMILES	YB-1 expression
CCOc1cccc(/C=N/NC(=O)CCCCCCC(=O)OC)c1OCC	0.028
CC(C)NC(=O)N(C)C[C@@H]1OCc2cnnn2CCCC(=O)N([C@H](C)CO)C[C@H]1C	-1.2
C[C@H]1CN([C@@H](C)CO)C(=O)CCCn2cc(nn2)CO[C@H]1CN(C)S(=O)(=O)c1ccc(-n2cccn2)cc1	-0.69
COC(=O)C(CC#Cc1ccc2c(c1)[C@]1(C(=O)N2)[C@H](c2ccc(O)cc2)N2[C@H](c3ccccc3)[C@H](c3ccccc3)OC(=O)[C@H]2[C@@H]1C(N)=O)C(=O)OC	-0.019
CCOC(=O)N(C)C[C@@H]1OCc2cn(nn2)CCCC(=O)N([C@H](C)CO)C[C@@H]1C	-0.55
C[C@H]1CN([C@@H](C)CO)C(=O)CCCn2nncc2CO[C@@H]1CN(C)C(=O)Nc1ccccc1C(F)(F)F	-0.44
COC(=O)CCCCCCC(=O)N/N=C/[C@H](O)[C@@H](O)[C@H](O)[C@H](O)CO[C@H]1O[C@H](CO)[C@H](O)[C@H](O)[C@H]1O	0.15
O=C(O)CCCCCCC(=O)NN=C1CCCCCCC1	-0.36
C[C@H](CO)N1C[C@H](C)[C@@H](CN(C)S(C)(=O)=O)OCc2cnnn2CCCC1=O	0.23

Bioassay records: PubChem, Broad Institute
